# Source: PubChem BioAssay (several laboratories)
# Mtb bLac sens = beta-lactam sensitization of Mtb H37Rv, H37Rv. 0.27% of 330,000 active. M. tuberculosis H37Rv growth with meropenem, percent inhibition; hits of this screen are not shown here. inhibition, % at 25 µM;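 active = about 74% or more and at least 40 points above the plate without the antibiotic, then above 30% in a dose series; inconclusive = first-round hits that could not be retested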;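 note: growth measured after seven days incubation then overnight dye step; 0% = bacteria only wells and 100% = bacteria with antibiotic; twin plates without the antibiotic show which effects depend on it; some results filed as inactive read as strong as hits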
# Mtb growth = M. tuberculosis H37Rv growth inhibitors, H37Rv strain (AID 1626); inhibition, % at 10 µM, or IC50 in µM where a hit was titrated; 0.95% of 220,000 active; M. tuberculosis H37Rv growth inhibition; higher % means a stronger effect;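 active = confirmed in a dose series; inconclusive = inhibition above 80% but not taken into the dose series; inactive = below 80% or under 30% at every dose of the series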;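 note: bacteria incubated seven days before Alamar blue readout; 0% = bacteria only wells and 100% = bacteria with antibiotic wells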
# YopH PTP inh = YopH tyrosine phosphatase inhibitors, primary screen, biochemical, fluorescence Ex485/Em525 | YopH tyrosine phosphatase [Yersinia enterocolitica] | inhibition, %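 (about 10 µM by stock and volumes)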 | 0.16% of 140,000 active | AID 898, 2007;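 active = inhibition of 50% or more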;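 note: controls were vehicle for no effect and minimum signal wells for full effect; inactives centre near -20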
# RecA splice inh = Mtb RecA intein splicing inhibitors, primary screen, biochemical, fluorescence, HTS; Protein RecA (Mycobacterium tuberculosis (strain ATCC 25618 / H37Rv)), P9WHJ3; cell-free RecA intein splicing; inhibition, %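 (about 9 µM by stock and volumes)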; 0.75% of 290,000 active; in the data active = inhibition above about 30%; inconclusive = no clear call, values can overlap the other calls;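 note: 0% = vehicle wells and 100% = reference inhibitor control wells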
# Target sequence (P9WHJ3 whole entry, looked up, canonical isoform): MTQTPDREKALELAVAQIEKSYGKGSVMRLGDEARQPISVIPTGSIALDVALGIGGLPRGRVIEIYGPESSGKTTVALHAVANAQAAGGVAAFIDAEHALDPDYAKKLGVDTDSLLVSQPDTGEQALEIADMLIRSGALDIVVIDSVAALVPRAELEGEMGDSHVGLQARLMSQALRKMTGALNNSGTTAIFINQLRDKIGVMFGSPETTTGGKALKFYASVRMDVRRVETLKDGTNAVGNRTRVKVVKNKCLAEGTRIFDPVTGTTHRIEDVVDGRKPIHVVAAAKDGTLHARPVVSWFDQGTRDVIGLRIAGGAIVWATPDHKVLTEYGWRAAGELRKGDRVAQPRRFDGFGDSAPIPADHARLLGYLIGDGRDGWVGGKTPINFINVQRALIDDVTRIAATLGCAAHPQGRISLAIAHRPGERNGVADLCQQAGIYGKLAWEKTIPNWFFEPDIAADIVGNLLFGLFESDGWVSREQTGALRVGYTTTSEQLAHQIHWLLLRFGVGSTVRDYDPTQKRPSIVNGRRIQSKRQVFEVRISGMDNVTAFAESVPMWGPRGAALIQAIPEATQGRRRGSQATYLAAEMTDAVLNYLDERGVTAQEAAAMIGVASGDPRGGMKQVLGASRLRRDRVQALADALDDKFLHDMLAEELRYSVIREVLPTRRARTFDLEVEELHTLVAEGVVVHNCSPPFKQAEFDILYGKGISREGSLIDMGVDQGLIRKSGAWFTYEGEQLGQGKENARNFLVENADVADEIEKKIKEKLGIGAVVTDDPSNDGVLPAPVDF
# Arbovirus inh = antivirals against arbovirus infection, primary screen, cell-based, full library, 10K replicate subset; AID 1251, 2008; arbovirus infection cell-based antiviral screen; inhibition, % at 10 µM; 0.37% of 200,000 active;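 active = inhibition from about 30%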;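 note: bluetongue infection of BSR cells; cell survival read as ATP light after 72 h; 0% = infected wells without compound and 100% = uninfected wells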
# Arbovirus inh repeat = second read-out of Arbovirus inh, no call of its own (marks repeat the call); inhibition, %; measured here: 10K subset replicate screen; many hits read low in the repeat;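 first of two repeat runs on a subset; 0% = infected and 100% = uninfected wells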
# An asterisk follows results filed as active; ? = inconclusive; nt = no result given. The list is partial (hit frequency here may not be typical).
SMILES,Mtb bLac sens,Mtb growth,YopH PTP inh,RecA splice inh,Arbovirus inh,others
COc1ccc(N(CC(=O)NC2CCCCC2)C(=O)c2ccc(C)s2)c(OC)c1,-4,nt,nt,2.7,nt,
CS(=O)(=O)N1CCC(C(=O)NCc2ccco2)CC1,-1,2%,15,0.3,-3,
CCOC(=O)/C=C/C(=O)OCC(=O)Nc1ccc(OC)c(Cl)c1,-6,3%,-13,-4.3,-1,
COc1ccc(C(=O)N[C@H](C(=O)Nc2nc3c(s2)CCCC3)C(C)C)cc1,61,6%,-24,7.0,-7,
O=C(Nc1nc2ccccc2[nH]1)C1CC1,-8,-3%,nt,-0.1,-11,
COCCCNC(=O)C1=CCN(S(=O)(=O)c2ccc(OC)cc2)CC1,1,nt,nt,-0.6,nt,
CCCCNc1nnc(SCC(=O)c2c[nH]c3ccccc23)s1,2,-2%,-2,0.8,11,
Cc1cc(C)nc(NC(=O)c2cc(-c3ccc(C)s3)nc3ccccc23)c1,18,19%,-17,-4.4,23,
CCCCCCOC(=O)C(C#N)c1nc2ccccc2nc1N1CCCCC1 (centres undefined),6,0%,-36,-44,9,
COc1ccc(CCNC(=O)CSc2ccccc2)cc1OC,2,-6%,-18,1.8,-5,
CC(=O)Nc1ccc2nc(NC(=O)CN3CCOCC3)sc2c1,-1,nt,nt,-2.2,nt,
CC1CCC(NC(=O)c2ccc(-n3cncn3)c([N+](=O)[O-])c2)CC1 (centres undefined),-3,nt,nt,-2.8,nt,
N#CC1=C(N)SC(N)=C(C#N)C1c1ccc([N+](=O)[O-])cc1,5,-3%,-23,0.8,5,
Cc1cc(C)cc(NC(=O)NCc2nnc(SCc3ccccc3)n2C)c1,-1,-5%,-20,-1.8,-8,
CC(C)(C#CCCCCC#CC(C)(C)[N+](C)(C)C)[N+](C)(C)C,-10,nt,nt,-0.2,nt,
CCN(CC)Cc1csc2ccc(Br)cc12,-1,4%,-29,-0.8,3,
CN1CCN(c2c(F)cc3c(=O)c(C(=O)O)cn(CCF)c3c2F)CC1,nt,?,nt,nt,-3,
COc1cc(NC(=O)CSc2nncn2C)cc(OC)c1OC,-3,-5%,nt,-1.2,9,
Cc1nc(Nc2ccccc2Br)c2nnn(Cc3ccccc3)c2n1,0,nt,nt,-3.5,nt,
CC(=O)Nc1ccc(S(=O)(=O)NCc2ccc(C(=O)NCCCN3CCC(C)CC3)cc2)cc1,0,nt,nt,0.1,nt,
O=C(CCN1C(=O)/C(=C/c2ccccc2)SC1=S)Nc1ccccn1,94,nt,nt,-0.5,nt,
CCCNS(=O)(=O)c1cccc(C(=O)OCc2cc(=O)oc3cc(OC)ccc23)c1,2,nt,nt,-0.6,nt,
COc1ccc(COc2cc(-c3cccc(OC)c3)nc3ccc(NC(=O)c4ccc(OC)cc4)cc23)cc1,98,71%,-35,-1.1,-22,
CNC(=S)Nc1ccc(C)c(NC(=S)NC)c1,-2,3%,nt,1.6,19,
COc1cccc(-c2cc(C(=O)N/N=C/c3ccc(OC)c(COC(C)=O)c3)c3ccccc3n2)c1,2,8%,-28,-3.6,-5,

# Random excerpt: 2 entries already listed, in no set order.
SMILES,Mtb bLac sens,Mtb growth,YopH PTP inh,RecA splice inh,Arbovirus inh,others
Cc1cc(C)cc(NC(=O)NCc2nnc(SCc3ccccc3)n2C)c1,-1,-5%,-20,-1.8,-8,
CCN(CC)Cc1csc2ccc(Br)cc12,-1,4%,-29,-0.8,3,

# Part of the list above in order of molar mass, lowest first:
SMILES,Mtb bLac sens,Mtb growth,YopH PTP inh,RecA splice inh,Arbovirus inh,others
CC1CCC(NC(=O)c2ccc(-n3cncn3)c([N+](=O)[O-])c2)CC1 (centres undefined),-3,nt,nt,-2.8,nt,
COc1cc(NC(=O)CSc2nncn2C)cc(OC)c1OC,-3,-5%,nt,-1.2,9,
CN1CCN(c2c(F)cc3c(=O)c(C(=O)O)cn(CCF)c3c2F)CC1,nt,?,nt,nt,-3,
CCCCCCOC(=O)C(C#N)c1nc2ccccc2nc1N1CCCCC1 (centres undefined),6,0%,-36,-44,9,
COc1ccc(C(=O)N[C@H](C(=O)Nc2nc3c(s2)CCCC3)C(C)C)cc1,61,6%,-24,7.0,-7,
COc1ccc(COc2cc(-c3cccc(OC)c3)nc3ccc(NC(=O)c4ccc(OC)cc4)cc23)cc1,98,71%,-35,-1.1,-22,

# Carrying on.
SMILES,Mtb bLac sens,Mtb growth,YopH PTP inh,RecA splice inh,Arbovirus inh,others
COc1ccccc1CCNC(=O)c1c(C)nn(CC(C)C)c1Cl,1,nt,nt,-0.1,nt,
O=C(Cn1nc(C(F)(F)F)c2c1CCCC2)NCCN1CCOCC1,-3,-10%,-12,-2.8,14,
O=C(NC1CCC(CC2CCC(NC(=O)C(Cl)Cl)CC2)CC1)C(Cl)Cl (centres undefined),1,nt,nt,-1.5,nt,
Cc1[nH][nH]c(=O)c1C(c1ccc(-c2ccc(Cl)c(C(=O)O)c2)o1)c1c(C)[nH][nH]c1=O,nt,-2%,nt,nt,0,
CCN1CCC(n2nccc2NC(=O)c2ccccc2Cl)CC1,-9,nt,nt,-6.5,nt,
Oc1ccc(C[C@H]2CNC(=S)N2CCc2cc(C(F)(F)F)cc(C(F)(F)F)c2)cc1,-18,-3%,nt,3.1,6,
CC(=O)Nc1cccc(C(=O)Nc2nc(C)cs2)c1,-6,1%,nt,-1.2,2,
COCCCN1C(=O)C(=O)/C(=C(/O)c2ccc(S(=O)(=O)N3CCOCC3)cc2)C1c1ccc(OC)cc1 (centres undefined),-1,nt,nt,-0.1,nt,
Cc1ccc(C)c(NC(=S)c2nc3ccccc3s2)c1,6,19%,-42,1.8,4,
O=C(COC(=O)COc1ccccc1Cc1ccccc1)Nc1cccnc1Cl,1,3%,-15,3.8,9,
CCOc1ccc2nc(N/C(N)=N/C(=S)Nc3cccc(OC)c3)nc(C)c2c1,82,68%,nt,-1.6,nt,
O=C(CSc1nnc2ccccn12)c1ccccc1,-8,-1%,-21,1.4,0,Arbovirus inh repeat=0
CC(NC(=O)C(=O)N/N=C/c1ccc(Cl)cc1)c1ccccc1 (centres undefined),-1,-1%,nt,-0.1,-1,
CC(C)Cc1ccc(CN2CCCC(NC(=O)CSc3nncn3C)C2)cc1 (centres undefined),0,nt,nt,8.2,nt,
N#Cc1c(-c2ccccc2)nc(N2CCCCCC2)[nH]c1=O,-14,-8%,-19,1.2,4,
Cc1cc(=O)n(C(NC(=O)c2ccccc2)C(=O)c2ccccc2)cn1 (centres undefined),5,-10%,-10,nt,2,
O=C(N/N=C/c1cc2c(cc1[N+](=O)[O-])OCO2)c1ccccn1,-2,-9%,-23,-1.7,nt,
Cc1ccccc1C(=O)NC1CCN(C(=O)Nc2ccccc2Cl)CC1,4,-3%,nt,1.5,0,
CN(Cc1ccccc1)C(=O)c1cccc(NC(=O)c2ccco2)c1,-7,-2%,-12,19,-1,
Cc1cc(-c2ccccc2)nc2oc3c(c12)NC(=O)CN(c1ccccc1)C3=O,-4,2%,nt,3.3,nt,
COCCNC(=O)C(c1ccc(C)o1)N(C(=O)Cn1nnc2ccccc21)c1ccccc1 (centres undefined),5,4%,nt,nt,9,
O=C(c1ccc(COc2c(F)c(F)c(F)c(F)c2F)o1)N1CCN(Cc2ccc3c(c2)OCO3)CC1,18,-9%,-27,13,4,
CCOc1ccc(S(=O)(=O)N(CC(=O)NCc2ccncc2)c2ccc(C)cc2)cc1,5,nt,nt,0.4,nt,
O=C(CNc1ccccc1)NN=C1CCCC1,-12,-7%,nt,1.1,13,
CCn1c(COc2ccc(C)cc2)nnc1SCc1nc2ccccc2[nH]1,-8,4%,11,nt,-2,

# Further entries follow.
SMILES,Mtb bLac sens,Mtb growth,YopH PTP inh,RecA splice inh,Arbovirus inh,others
CCOc1ccc(/C=N/N2C(C)CCCC2C)cc1 (centres undefined),-1,nt,nt,3.3,nt,
COc1ccc(OC)c(/C=N/NC(=O)CNC(=O)c2ccc(S(=O)(=O)N3CCCC3)cc2)c1,-4,-2%,nt,1.2,8,
CCC(C)c1ccccc1OCCCCN1CCCC1 (centres undefined),8,-2%,-19,0.1,-8,
O=C(CSc1nnnn1C1CC2CCC1C2)Nc1ccnc2ccccc12 (centres undefined),4,nt,-34,nt,15,
O=C(CCC(=O)N1CCSc2ccccc21)NCc1cccc(Br)c1,1,nt,nt,4.4,nt,
COc1ccc(C(=O)NCCCNC(=O)c2ccco2)cc1OC,2,nt,nt,0.6,nt,
CC(=O)Nc1ccc(CN2CCN(CCc3ccccc3)C(CCO)C2)cc1 (centres undefined),-8,-1%,nt,0.4,3,
CCN(CC)CCN(Cc1cc2cc(C)ccc2[nH]c1=O)C(=S)NCc1ccco1,2,8%,-31,-2.6,5,
O=C(/C=C/c1cccs1)Nc1ccc(Br)cn1,0,5%,-27,1.8,-1,
O=C(N=Nc1c(O)n(Cc2ccccc2)c2ccccc12)c1cc2ccccc2cc1O,3,65%,-15,-0.8,-29,
COc1ccc(N(C)C(=O)C2CCCN2S(=O)(=O)c2cccc3nsnc23)c(OC)c1 (centres undefined),2,nt,nt,-7.8,nt,
O=C(/C=C/c1ccncc1)c1ccc(NC(=O)c2ccccc2F)cc1,100,?,-26,nt,-44,
COc1ccc(Cn2nnnc2C(c2cc3cc(C)cc(C)c3[nH]c2=O)N2CCOCC2)cc1 (centres undefined),0,-6%,-5,-0.4,4,
CCCCn1c(N)c(N(CCC(C)C)C(=O)c2ccc3c(c2)OCCO3)c(=O)[nH]c1=O,-4,nt,nt,7.3,nt,
Cc1ccc(NC(=O)CSc2nnc(-c3ccncc3)n2N)cc1C,-20,-1%,-45,-0.7,-6,Arbovirus inh repeat=2
COc1ccc(C(=O)N2CCC(C(=O)Nc3ccc(OC)c(OC)c3)CC2)cc1,-13,-3%,-30,0.2,-3,Arbovirus inh repeat=2
O=C(NCCOc1ccccc1)c1n[nH]c(=O)c2ccccc12,-11,-2%,-12,0.5,6,
Cc1nc2ccccc2c(=O)n1/N=C/c1cccs1,-2,1%,nt,0.1,6,
COc1ccc(NC(=O)c2c(C(F)(F)F)nn(C)c2SCc2ccccc2Cl)cc1,-7,-1%,-23,2.9,5,
O=C(NCCc1ccc(Cl)cc1)c1ccc2ccccc2n1,5,nt,nt,-1.3,nt,
COc1ccc2cc(CCNC(=O)c3ccc(S(=O)(=O)N4CCOCC4)cc3)c(=O)[nH]c2c1,10,nt,nt,-3.0,nt,
O=C(Cn1ncc2c3ccccc3n(Cc3cccc(Cl)c3)c2c1=O)NCc1ccccn1,0,nt,nt,-6.6,nt,
Cn1c(CNC(=O)c2ccccc2F)nnc1SCC(=O)NCc1ccccc1,0,3%,nt,-0.3,-2,
c1ccc(-c2nnc(CSc3nnc(-c4ccncc4)n3Cc3ccco3)o2)cc1,8,nt,-31,1.7,8,
COc1cccc(CN(C)C(c2ccccc2)c2ccccc2)c1OC,-1,nt,nt,9.9,nt,
Cc1cccc(N2CCN(C(=O)c3c(Cl)cnn3C)CC2)c1C,0,nt,nt,1.9,nt,
